Assay outcomes: PubChem BioAssay, National Center for Advancing Translational Sciences (NCATS)
Vaccinia mCherry = qHTS for Stage-Specific Inhibitors of Vaccinia Orthopoxvirus: mCherry Reporter Primary qHTS; Potency, µM (highest dose often 36.5 µM), inactives show at the highest dose activity change, negative = inhibition, most hits filed as inhibitors; AID 720579, 2013; 310,000 compounds, 0.63% hits; Vaccinia virus mCherry reporter infection, fluorescence; about a quarter of the inactives have no number; active = well fitted inhibition curve with a large enough effect; inconclusive = small, poorly fitted or top-dose-only effect; inactive = no such curve, though single readings can be large or run the other way; tested in A549 cells; also: nearly all actives have a fitted effect of over 35% in size; inactives centre near -10
Vaccinia Venus = qHTS for Stage-Specific Inhibitors of Vaccinia Orthopoxvirus: Venus Reporter Primary qHTS | Vaccinia virus Venus reporter expression, fluorescence | Potency, µM (top dose mostly 36.5 µM), without a hit: at the highest dose activity change, negative = inhibition, actives largely listed as inhibitors | 330,000 compounds, 0.46% hits | AID 720580, 2013; active means well fitted inhibition curve with a large enough effect; inconclusive means small, poorly fitted or top-dose-only effect; inactive means no such curve, though single readings can be large or run the other way; tested in A549 cells; also: nearly all actives have a fitted effect of over 30% in size; inactives centre near -10
The depositor's hits bear a star; i = inactive; u = inconclusive; x = no result given; [ ] = another dose, or the depositor's remark. % is scaled to controls: 0 for no effect and ±100 for the full control effect; potency is read from the fitted curve at half-maximal effect.

No.	compound	Vaccinia mCherry	Vaccinia Venus
1	COc1cc(/C=C/C(=O)OCC(=O)c2c(N)n(C)c(=O)n(C)c2=O)ccc1O	-19%	-22%
2	Cc1cnccc1NC(=O)c1cccs1	i	8%
3	CN(C)S(=O)(=O)c1ccc(C(=O)NCc2cccs2)cc1	-15%	-15%
4	Cc1nc(SCC(=O)NCCc2ccccc2)c2c(=O)n(C)c(=O)n(C)c2n1	i	-5%
5	O=C(NCCCn1ccnc1)c1ccc(S(=O)(=O)Nc2ccccc2)cc1	-6%	-5%
6	Cc1ccc(C2N3CCCN23)cc1 (stereo not given)	5%	10%
7	C/C(=N/NS(=O)(=O)c1ccc(C)cc1)c1c(O)c2ccccc2oc1=O	-9%	-18%
8	Cn1c(NNC(=O)C(c2ccccc2)c2ccccc2)cc(=O)n(C)c1=O	-1%	1%
9	CCN(CC)S(=O)(=O)c1ccc2c(c1)N(CC(=O)Nc1ccc(F)cc1F)C(=O)C1CCCN21 (stereo not given)	2%	-1%
10	COc1ccccc1NS(=O)(=O)c1cccc(C(=O)NCc2ccco2)c1	-2%	-4%
11	Cc1ccc2onc(CNC(=O)NCc3ccccc3)c2c1	-3%	-10%
12	CCOC(=O)N1CCN(S(=O)(=O)c2ccc3c(c2)SC(C)C(=O)N3)CC1 (stereo not given)	-25%	-24%
13	CCCNC(=O)C1(C)CCN1C(=O)C1(c2ccccc2)CC1 (stereo not given)	5%	5%
14	CCOc1ccccc1C(=O)N(Cc1ccccc1)Cc1cc2cc3c(cc2[nH]c1=O)OCCO3	-14%	7%
15	COc1ccc(-c2ccc3c(c2)[C@@H]2C[C@H](N(C)S(=O)(=O)c4ccccc4)[C@H]([C@H](C)O)C(=O)N2CC3)cc1	u	u
16	COc1ccc(C2OCC3(CO2)SC(N)=NC3=O)cc1 (stereo not given)	i	-8%
17	O=C(CCCCn1c(=O)c2ccccc2n(CC(=O)Nc2ccc(F)cc2F)c1=O)NCc1ccccc1Cl	-29%	-19%
18	COc1cc(OC)cc(C(=O)OCC(=O)N2CCCC2)c1	-16%	-16%
19	CCCn1c(C)nc2c(c1=O)c1nc3ccccc3nc1n2-c1ccccc1	-17%	-10%
20	COc1ccc(CCNC(=O)c2cccc(-n3cnnn3)c2)cc1	-16%	-10%
21	NC(=O)c1c(NC(=O)C2CC=CCC2C(=O)O)sc2c1CCCCC2 (stereo not given)	-6%	4%
22	O=C(Cn1cc([N+](=O)[O-])ccc1=O)NCc1ccc(Cl)cc1Cl	i	-7%
23	COC(=O)C1=C(C(=O)OC)[C@@H]2N(C)c3ccc(OC)cc3[C@@]23C[C@@H](C(=O)OC)N(C(=O)COCc2ccccc2)C3=N1	-8%	u
24	Cc1nn(CC(=O)NCCCN2C(C)CCCC2C)c(=O)c2cc3occc3n12 (stereo not given)	i	-10%
25	Cc1ccc(C(=O)C[n+]2cccc3cc(C)ccc32)cc1	-3%	-7%
26	O=C(Nc1ccccc1N(C(=O)c1ccco1)S(=O)(=O)c1cccs1)c1ccco1	i	u
27	CC(C)CC(NS(=O)(=O)OCC(Cl)(Cl)Cl)c1ccccc1 (stereo not given)	u	u
28	Cc1nn(C)c2c1c(-c1ccccc1)cc(=O)n2Cc1ccc(Br)cc1F	0%	8%
29	Cc1ccc(C)c(NC(=O)COC(=O)c2c(-c3ccccc3)noc2C)c1	-13%	-8%
30	COC(=O)c1cc2sc(C)cc2n1Cc1nc(-c2ccc(C)cc2)oc1C	-4%	6%
31	CCCNC(=O)C(Cc1ccccc1C)NC(=O)c1ccc(C(F)(F)F)cc1 (stereo not given)	i	-20%
32	COc1ccc(OC)c(CN2C(=O)c3ccccc3C2c2nnnn2Cc2ccccc2)c1 (stereo not given)	-4%	1%
33	C[C@H]1CN([C@@H](C)CO)C(=O)c2cc(NC(=O)c3ccncc3)ccc2O[C@H]1CN(C)Cc1ccc(C(=O)O)cc1	i	-7%
34	COc1cccc(C2NC(=O)CCC2[N+](=O)[O-])c1 (stereo not given)	-19%	-7%
35	COCCNC(=O)C(c1ccc(C)o1)N(CC1CCCO1)C(=O)Cn1nnc2ccccc21 (stereo not given)	-6%	-13%
36	NC[C@H]1O[C@H](O[C@H]2[C@H](O)[C@@H](O[C@H]3O[C@H](CO)[C@@H](O)[C@H](N)[C@H]3O)[C@H](N)C[C@@H]2N)[C@H](N)C[C@@H]1O	-9%	-4%
37	CC1C(=O)N(Cc2cn(CCC3OCCCO3)nn2)CCS(=O)(=O)N1Cc1ccc(-c2ccc(Cl)cc2)cc1 (stereo not given)	-18%	u
38	CCOC(=O)C1CN(S(C)(=O)=O)c2cc(CC(=O)OC)ccc2O1 (stereo not given)	-1%	-6%
39	CN(Cc1ccccc1)C(=O)c1[nH]cnc1C(=O)NCC(=O)OC(C)(C)C	i	-3%
40	Cc1ccccc1OCC(=O)NNC(=O)c1ccc(-n2cncn2)c([N+](=O)[O-])c1	i	-4%
41	COc1ccc(Cl)cc1NC(=O)CN(C)C(=O)c1ccc2c(c1)CC(c1ccccc1)OC2=O (stereo not given)	-15%	-19%
42	CCCOC1CCCN(C(=O)c2ccc(OC)c(OC3CCN(C(C)C)CC3)c2)C1 (stereo not given)	-4%	-6%
43	CCCC1(C(=O)O)NC(c2ccc(OC)cc2O)C2C(=O)N(c3ccc(OC)cc3)C(=O)C21 (stereo not given)	4%	3%
44	COC(=O)c1ccc2nc(C)cc(Nc3ccccc3C)c2c1	u	u
45	Cc1ccc(-c2cn(-c3ccc(Cl)cc3)c(S(=O)(=O)CC(=O)Nc3ccccc3)n2)cc1	u	u
46	Cc1ccc(OCC(=O)NCCc2c[nH]c3ccccc23)cc1	-21%	-9%
47	CCc1ccc(-c2cc(C(=O)Nc3ccc(S(=O)(=O)NC(C)=O)cc3)c3ccccc3n2)cc1	i	-19%
48	COC(=O)c1nc(NC(=O)c2ccc(Cl)cc2)n[nH]1	-12%	3%
49	CCCCCC(=O)/C=C/C=C\CCCCCCCC(=O)O	-10%[0.293 µM]	-10%[0.293 µM]
50	COc1ccc(S(=O)(=O)N2CCC(C(=O)NCc3cccnc3)CC2)cc1OC	-12%	-8%

Continued:
No.	compound	Vaccinia mCherry	Vaccinia Venus
51	c1ccc(NC2=NCCN2CCC2CCCC2)cc1	i	-3%
52	COC(=O)CCc1sc(Nc2ccc(OC)cc2)nc1-c1ccc(OC)cc1	i	-15%
53	Cc1csc(SCC(=O)Nc2cccc3nsnc23)n1	x	u
54	COc1ccc(N2CCN(CCCNC(=O)c3ccc4nc(N5CCCCC5)sc4c3)CC2)cc1	-15%	u
55	COc1ccc(N2CCN(C(=O)COC(=O)/C=C/c3ccc(C(F)(F)F)cc3)CC2)cc1	-9%	8%
56	c1ccc2c(CNc3ccc(CNc4ncn[nH]4)cc3)cccc2c1	x	-21%
57	COC(=O)c1ccsc1NC(=O)c1ccc(Cl)s1	i	-20%
58	O=C(CN1N=C(c2ccccc2)CCC1=O)NCc1ccc(F)cc1Cl	5%	-1%
59	CN(CCOc1ccccc1)C(=O)c1cc([N+](=O)[O-])cc([N+](=O)[O-])c1	-21%	-10%
60	CCOc1cc(Cl)c(NC(C)=O)cc1OCC	i	2%
61	CC(CC(=O)Nc1ccc2c(c1)c(=O)n(C)n2-c1cccs1)c1ccccc1 (stereo not given)	-2%	-27%
62	COC(=O)C(O)(c1ccc(NC(=O)c2ccco2)c(OC)c1)C(F)(F)F (stereo not given)	x	-26%
63	CN(C(=O)c1c(Cl)nc2sccn12)C1CCCCC1	-14%	-1%
64	Cc1nnc(N2CCCC(C(=O)Nc3ccccc3C(F)(F)F)C2)c2nn(-c3ccccc3)c(C)c12 (stereo not given)	-11%	-11%
65	CCCCN(C(=O)c1c(CC)noc1C)c1c(N)n(CCC)c(=O)[nH]c1=O	-6%	-2%
66	CCCOc1ccccc1NC(=O)Nc1ccccc1Cl	-3%	-11%
67	COc1ccccc1CNC(=O)c1oc2ccccc2c1C	-10%	-15%
68	O=C(NC1CC2CCC1C2)c1ccco1 (stereo not given)	-15%	-16%
69	CC(C)c1cc(CN2C(C)COCC2C)cc(C(C)C)c1O (stereo not given)	u	-20%
70	Cc1ccccc1-c1nc2cc(N)ccc2o1	u	-23%
71	CCN(CC)CCCN1C(=O)C(O)=C(C(=O)c2cc3ccccc3o2)C1c1ccccn1 (stereo not given)	-11%	-9%
72	Cc1cccc(/C=C/C(=O)c2ccc([N+](=O)[O-])o2)c1	u	11µM*
73	CCOC(=O)c1ccc(NS(=O)(=O)c2c(C)[nH]c(C)c2C(=O)N2CCCCC2)cc1	-7%	-11%
74	Cc1cn([C@H]2C[C@H](O)[C@@H](CNC(=O)[C@H](N)C3CC3)O2)c(=O)[nH]c1=O	i	-7%
75	CN1CCN(CCCCOc2ccc(F)cc2)CC1	-12%	-13%
76	O=C(CSc1nnc2c(Cl)cc(Cl)cn12)NC1CCS(=O)(=O)C1 (stereo not given)	x	3%
77	CC[C@]12c3[nH]c4cc(CCC(=O)N(C)C)ccc4c3CCN1C(=O)[C@@H](CC(=O)NCCCn1ccnc1)C[C@@H]2C(=O)N1CCN(C(=O)c2ccco2)CC1	-22%	-10%
78	CC(NC(=O)Cn1cnnn1)C12CC3CC(CC(C3)C1)C2 (stereo not given)	-22%	-20%
79	NC(=O)CCCn1c(C(=O)c2ccc(Cl)cc2)c2ccc(C(F)(F)F)cc2[n+]1[O-]	-15%	-21%
80	COC(=O)c1nn(-c2ccccc2)c(=O)cc1Sc1ccc(Cl)cc1	-27%	-15%
81	CCc1ccc(C(=O)Nc2cccc(-c3nc4cc(C(C)C)ccc4o3)c2)cc1	-3%	1%
82	CNC(=O)COc1ccc(S(=O)(=O)Nc2ccc(OC)cc2)cc1	i	-12%
83	COc1ccc2c(c1)CC(C(=O)NCCN1CCN(c3ccccc3F)CC1)CO2 (stereo not given)	-10%	-17%
84	O=C(Nc1ccccc1)c1c(F)cccc1F	i	-12%
85	S=c1[nH]nc(-c2cccnc2)n1-c1ccc2c(c1)OCCO2	-4%	3%
86	C1CCc2c(nc3nnnn3c2NC2CCCC2)C1	x	-11%
87	Cc1cccc(-n2c(-c3ccccc3)c[nH]c2=S)c1C	u	-17%
88	Cc1nn(-c2cccc(C(=O)O)c2)c(C)c1[N+](=O)[O-]	-7%	-5%
89	O=C(c1ccco1)N1CCN(C(=O)C2Cc3ccccc3CN2S(=O)(=O)c2ccc(F)cc2)CC1 (stereo not given)	-6%	-8%
90	O=C(CN1C(=O)c2cccc3cccc1c23)N1CCc2ccccc2C1	-1%	-16%
91	CCN(CC(=O)Nc1c(F)cccc1F)C(=O)/C=C/c1ccc(OCC#N)c(OC)c1	-1%	-18%
92	Cc1cccc(Nc2nc(N)nc(N)c2N=O)c1	u	-4%
93	Cc1cc(C)nc(-n2nc(C)cc2NC(=O)COC(=O)CCC(=O)c2cccs2)n1	x	-15%
94	CCc1cccc(CC)c1NC(=O)c1ccccc1CCc1ccccc1	-9%	-8%
95	CCCCNS(=O)(=O)c1ccc(NC(=O)Cc2ccccc2[N+](=O)[O-])cc1	-3%	-16%
96	CC(C)c1ccc(NC(=O)C2CCN(c3nc(-c4ccc(C(C)C)cc4)no3)CC2)cc1	-6%[7.34 µM]	-12%[7.34 µM]
97	COCCCN1C(=O)C(O)=C(C(=O)c2ccco2)C1c1ccc(Br)cc1 (stereo not given)	x	-6%
98	CC(C)(C)NC(=O)c1cnn(-c2ccccc2)c1NC(=O)c1ccccc1	-9%	-10%
99	COc1ccc(OCCCC(=O)OC(C)C(=O)Nc2ccc(NC(C)=O)cc2)cc1 (stereo not given)	-13%	-12%

Excerpt: entries 76–89
No.	compound	Vaccinia mCherry	Vaccinia Venus
76	O=C(CSc1nnc2c(Cl)cc(Cl)cn12)NC1CCS(=O)(=O)C1 (stereo not given)	x	3%
77	CC[C@]12c3[nH]c4cc(CCC(=O)N(C)C)ccc4c3CCN1C(=O)[C@@H](CC(=O)NCCCn1ccnc1)C[C@@H]2C(=O)N1CCN(C(=O)c2ccco2)CC1	-22%	-10%
78	CC(NC(=O)Cn1cnnn1)C12CC3CC(CC(C3)C1)C2 (stereo not given)	-22%	-20%
79	NC(=O)CCCn1c(C(=O)c2ccc(Cl)cc2)c2ccc(C(F)(F)F)cc2[n+]1[O-]	-15%	-21%
80	COC(=O)c1nn(-c2ccccc2)c(=O)cc1Sc1ccc(Cl)cc1	-27%	-15%
81	CCc1ccc(C(=O)Nc2cccc(-c3nc4cc(C(C)C)ccc4o3)c2)cc1	-3%	1%
82	CNC(=O)COc1ccc(S(=O)(=O)Nc2ccc(OC)cc2)cc1	i	-12%
83	COc1ccc2c(c1)CC(C(=O)NCCN1CCN(c3ccccc3F)CC1)CO2 (stereo not given)	-10%	-17%
84	O=C(Nc1ccccc1)c1c(F)cccc1F	i	-12%
85	S=c1[nH]nc(-c2cccnc2)n1-c1ccc2c(c1)OCCO2	-4%	3%
86	C1CCc2c(nc3nnnn3c2NC2CCCC2)C1	x	-11%
87	Cc1cccc(-n2c(-c3ccccc3)c[nH]c2=S)c1C	u	-17%
88	Cc1nn(-c2cccc(C(=O)O)c2)c(C)c1[N+](=O)[O-]	-7%	-5%
89	O=C(c1ccco1)N1CCN(C(=O)C2Cc3ccccc3CN2S(=O)(=O)c2ccc(F)cc2)CC1 (stereo not given)	-6%	-8%
